Assay outcomes: PubChem, National Center for Advancing Translational Sciences (NCATS)
Sfp PPTase inh: blocks B. subtilis Sfp PPTase activity | AID 1490 | Q9F4F7 | Potency, µM, for inactives: max response, negative = inhibition, usual class: inhibitors | Biochemical Sfp PPTase activity, qHTS | 310,000 tested, 3.5% active; active means well fitted inhibition curve with a large enough effect; inconclusive means small, poorly fitted or top-dose-only effect, or another doubt; inactive means no such curve, though single readings can be large or run the other way;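 further: the enzyme is Sfp with the accession as filed and its product quenches rhodamine fluorescence; potency means the concentration at half of the fitted maximal effect; 0% = enzyme reaction without inhibitor and -100% = no enzyme wells; top concentration of the series not given in the record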
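Sfp 15 nM + cpd, 15 min RT; start w/ rhodamine-CoA 5 uM, BHQ-2-YbbR 12.5 uM (final); 50 mM Hepes pH 7.6, 10 mM MgCl2, 0.01% NP-40, 0.01% BSA; read 525/598 nm at 0 and 30 min.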
Menin-MLL FL inh: displaces fluorescein MLL peptide from human menin. Fluorescence polarization, fluorescein-MLL peptide displacement from menin. FP activity change, % at 61.4 µM. 290,000 tested, under 10 active. AID 1766; inconclusive = falling polarisation curve, or a change in total fluorescence; inactive = total fluorescence flat and polarisation flat or rising; no compound was filed as active; the % refers to the polarisation; negative = inhibition;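 further: % of control where 0% means no effect; inhibitors lower the polarisation; unlabelled MLL peptide was the positive control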
D2 agonist: human D2 receptor agonism in beta-arrestin assay. P14416. DiscoveRx PathHunter D2 beta-arrestin, luminescence, 90 min; 100% = 57 uM dopamine signal. activation, % (test concentration not listed). 360,000 tested, 0.084% active. AID 624465; in the data active = activation above about 40%; inconclusive = about 15% to 40%; inactive = below about 15%; further: compound concentration not given in the record; the text of the record calls up to 30% inactive
Target sequence (P14416 whole entry, looked up): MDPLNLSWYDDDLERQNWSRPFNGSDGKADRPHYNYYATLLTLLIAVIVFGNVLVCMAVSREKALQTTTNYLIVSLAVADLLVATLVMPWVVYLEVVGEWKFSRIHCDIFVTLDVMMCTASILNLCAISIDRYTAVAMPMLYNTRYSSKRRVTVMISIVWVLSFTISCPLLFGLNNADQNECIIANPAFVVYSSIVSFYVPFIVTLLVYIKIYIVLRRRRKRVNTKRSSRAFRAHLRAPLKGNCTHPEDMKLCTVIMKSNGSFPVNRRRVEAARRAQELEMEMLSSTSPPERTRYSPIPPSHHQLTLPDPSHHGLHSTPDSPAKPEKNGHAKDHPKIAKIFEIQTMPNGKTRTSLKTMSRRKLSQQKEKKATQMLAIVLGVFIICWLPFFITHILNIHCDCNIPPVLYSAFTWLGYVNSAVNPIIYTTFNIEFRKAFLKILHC
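Agonist mode: compounds alone added to overnight-plated D2 PathHunter cells for 90 min at 37 C, with 57 uM final dopamine (EC100) defining full response. Beta-arrestin recruitment detected by chemiluminescent reagent, read after 1 h at ambient temperature.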
gsp agonist: activates gsp, the McCune-Albright syndrome mutation; 340,000 tested, 0.13% active; Potency, µM (highest dose often 76.9 µM), for the others: at the highest dose activation (cAMP increase), hits mostly activators; gsp mutant cells, cAMP HTRF, 30 min; control for the full effect not named in the record; active = well fitted activation curve with a large enough effect; inconclusive = small, poorly fitted or top-dose-only effect, or another doubt; inactive = no such curve, though single readings can be large or run the other way; cell line not stated here;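 further: phosphodiesterase inhibitor Ro 20-1724 added with compounds to block cAMP breakdown; potency means the concentration at half of the fitted maximal effect; nearly all actives have a fitted effect of over 60% in size; about a fifth of the inactives were tested at one dose only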
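Cells in DMEM/10% FBS with G418 were pretreated with compounds in DMSO plus […] (300 uM stock) for 30 min at 37C. cAMP was measured by HTRF (cAMP-d2 plus anti-cAMP antibody-K) after 30 min at room temperature.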
gsp antagonist: antagonizes gsp, the McCune-Albright syndrome mutation. Potency, µM (highest dose often 76.9 µM), inactives show top-dose activity change, negative = inhibition, actives largely listed as inhibitors. 340,000 tested, 0.4% active. gsp-mutant cells, cAMP HTRF, 30 min; control for the full effect not named in the record. AID 624288; active = falling curve of any shape with a large fitted effect; inconclusive = falling curve, mostly with a smaller effect; inactive = flat or rising curve; cell line not stated here;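 further: intracellular cAMP measured with PDE inhibitor Ro 20-1724 present during compound exposure; potency means the concentration at half of the fitted maximal effect; on the % scale 0 is the no-effect control and ±100 the full control effect; nearly all actives have a fitted effect of over 65% in size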
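G418-selected cells were plated in DMEM/10% FBS for 16-24 h at 37C, then treated with compounds plus the PDE inhibitor […] (300 uM solution added) for 30 min at 37C. Intracellular cAMP was measured by HTRF after 30 min lysis at room temperature.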
ClpP mod: qHTS Assay for Activators of ClpP. purified B. subtilis ClpP, FRET peptide cleavage, 20 min. Potency, µM (doses to about 57.5 µM), inactives show at the highest dose activity change, negative = active. 340,000 tested, 1.9% active; active = well fitted falling curve with a large enough effect; inconclusive = small, poorly fitted or top-dose-only effect; inactive = no such curve, though single readings can be large or run the other way; further: potency means the concentration at half of the fitted maximal effect; the source files actives as falling curves though it sought activators and does not explain the sign; nearly all actives have a fitted effect of over 65% in size; many hits overshoot -100%
Target sequence (P80244 whole entry, looked up): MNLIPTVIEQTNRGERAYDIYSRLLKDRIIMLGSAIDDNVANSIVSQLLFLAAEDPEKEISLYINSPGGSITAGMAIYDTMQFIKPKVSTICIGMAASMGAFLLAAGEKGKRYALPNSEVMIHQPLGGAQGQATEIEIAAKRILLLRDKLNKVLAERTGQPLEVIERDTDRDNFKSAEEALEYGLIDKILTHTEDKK
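Purified B. subtilis ClpP, 10 microg/mL final in Tris/HCl pH8 with KCl, BSA, glycerol and Tween-20, cleaved an Abz/nitrotyrosine-quenched decapeptide. Fluorescence (ex 320, em 430) was read at 0 and 20 min at room temperature. Delta was normalized to 5.8 microM ADEP and DMSO/no-enzyme controls.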
PINK1 modulator: modulators of PINK1 expression; PINK1 immunofluorescence, high-content cytometry, 24 h; Potency, µM (series often up to 76.6 µM), for inactives: top-dose activation (PINK1 increase), most hits filed as activators; 410,000 tested, 0.2% active; AID 624263; active = well fitted activation curve with a large enough effect; inconclusive = small, poorly fitted or top-dose-only effect; inactive = flat fitted curve, though single readings scatter; cell line not stated here;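 further: potency means the concentration at half of the fitted maximal effect; % of control where 0% means no effect; nearly all actives have a fitted effect of over 65% in size; a mitochondrial uncoupler was the plate control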
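Measures PINK1 amount and localization on or inside mitochondria by immunofluorescence. Stable cells get compounds at 5 concentrations for 24 hours before fixation and staining; CCCP controls included.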
* hit, by the source's call; ? = inconclusive; . = no result given; & = joins results of further samples; [ ] = dose if it differs, or a comment.

SMILES | Sfp PPTase inh | Menin-MLL FL inh | D2 agonist | gsp agonist | gsp antagonist | ClpP mod | PINK1 modulator
Fc1cc(F)cc(NC(=S)Nc2ccccc2N2CCOCC2)c1 | -20.4% | -3.4 | 4.3 | 9.8% | 0.6% | . | -1.2%
CC1(C)[C@H]2CC=C(CN3CCC(N4CCC(C(=O)N5CCCC5)CC4)CC3)[C@@H]1C2 | 17.5% | -0.4 | -4.8 | -10.6%[15.4 µM] | 11.2% | . | 1.7%
CCOc1ccc(C(=O)CN2CCN(S(=O)(=O)c3ccc(F)cc3)CC2)cc1 | -10.0% | 1.2 | -3.6 | -5.2% | -32.8% | 0.6% | 1.9%
CCCCn1c(NCc2ccccc2O)nc2ccccc21 | -1.8% | -1.5 | -7.3 | -42.1%[inhibitor] | -11.3% | -0.4% | 9.1%
COc1ccccc1-c1sc2cc3c(cc2c1-c1ccc(OCCN2CCCCC2)cc1)OCO3 | . | . | 11.0 | 1.5% | 8.6% | 5.1% | -2.2%
COc1ccc(CCNC2=NCCS2)cc1 | -0.7% | 3.5 | -2.3 | -10.4% | 8.9% | -0.8% | -0.5%
CC(C)(C)NC(=O)CSc1nc2ccccc2c(=O)[nH]1 | 14.6% | 1.0 | -2.6 | -11.2%[15.4 µM] | 5.1% | . | 1.3%
O=C(CSc1nncc2ccccc12)Nc1ccc(F)cc1 | 8.2% | -2.1 | 0.6 | -4.3% | 1.6% | . | 0.8%
COC(=O)CCC(=O)OC1(C)C(=O)C=C2C=C(C3CC3)N(C(CO)CO)C=C2C1=O (configuration not stated) | 17.3%&1.9% | 1.5[11.7 µM] | 10.0 | -28.9% | -6.7% | -5.3% | -0.2%
CCOC(=O)c1oc2ccccc2c1NC(=O)CN1CCOCC1 | 8.9% | -6.7 | 1.8 | 1.3%[15.4 µM] | -6.9% | . | 0.1%
CC(C)c1ccc(S(=O)(=O)N2CCN(C(=O)c3ccco3)CC2)cc1 | -4.3% | 1.3 | -0.4 | -10.5%[15.4 µM] | -3.8% | 0.3% | -0.1%
O=C(CSc1ncn[nH]1)N(C1CCCCC1)C1CCCCC1 | 0.9% | -0.1 | -2.0 | 16.3% | -14.5% | 6.0% | 11.4%[38.3 µM]
C/C(=N/OC(=O)c1ccc(Cl)cc1Cl)c1oc(C)nc1C | 16.6% | 2.2 | 0.0 | -2.5%[15.4 µM] | 6.3% | . | -0.8%
COc1ccc(OC)c(S(=O)(=O)N2CCc3ccccc3C2)c1 | -0.2% | 3.1 | -4.1 | ? | -13.2% | -2.4% | -0.9%
COc1ccc(NC(=O)N2CCN(S(=O)(=O)c3ccc(F)cc3)CC2)c(OC)c1 | 5.8% | . | -1.4 | -5.3% | -5.7% | -5.1% | 0.5%
CC(C)(C)c1nc2cc(Cl)c([N+](=O)[O-])cc2o1 | -10.2% | -9.1 | -5.8 | 4.3%[15.4 µM] | -19.0% | 0.8% | 14.1µM*
Cc1ncc([N+](=O)[O-])n1Cc1ccccc1F | 11.9% | -0.7 | -1.0 | -0.4% | -1.0% | 3.5% | -0.1%
COc1ccc(C2=NOC(C(=O)NCc3ccco3)C2)cc1 (configuration not stated) | 8.3% | 3.7 | 2.3 | ? | 10.7% | 0.5% | 26.6%[38.3 µM]
CCN(CCO)C(=O)CC(c1ccccc1)c1cc(Br)ccc1O (configuration not stated) | 0.6% | 1.1 | 2.2 | -45.1%[inhibitor] | -0.1% | -2.0% | -1.8%
O=P(CO)(Cc1ccccc1)Cc1ccccc1 | 4.1% | 4.9 | -3.1 | -40.9%[inhibitor] | -4.2%[15.4 µM] | -1.4% | -1.1%
COc1ccc(CN2CCN(C(=O)C3CCN(C(=O)Nc4ccccc4)CC3)CC2)cc1OC | . | . | -0.9 | -1.0% | 11.1% | -0.2% | 2.6%
COc1ccc(NC(=O)C2CCN(C(=O)[C@@H]3Cc4ccccc4CN3C(=O)OC(C)(C)C)CC2)cc1 | 15.4% | 1.2 | -1.2 | 12.6% | 2.3% | -0.2% | -0.7%
COCCn1c(CN(Cc2ccccc2)Cc2ccccc2)nc2c1c(=O)n(C)c(=O)n2C | ? | 5.1 | -1.6 | -47.4%[inhibitor] | -28.4% | -2.9% | -0.4%
CSCC[C@H](NC(=O)N1CCn2c1nc1ccccc12)C(=O)NC1CC1 | -14.3% | -7.4 | -3.8 | -33.5%[inhibitor] | 5.8% | -1.1% | -0.1%
CCCCCc1nc2c(c3c1CCCC3)CCCC2 | 13.3% | -0.7 | -5.3 | 14.8% | 7.5% | . | ?
Cc1ccccc1NC(=O)/C(C#N)=C\c1ccsc1 | 1.7% | 6.6 | 0.6 | 8.6% | 5.0% | 2.6% | 4.3%
CCN(C(=O)c1cc2c(s1)-c1ccccc1S(=O)(=O)C2)c1cc(OC)ccc1OC | -1.4% | 5.4 | -0.4 | ? | -9.4% | 0.2% | -0.2%
CC(C)NS(=O)(=O)c1ccc(OCC(=O)Nc2cccc3ccccc23)cc1 | -0.1% | 1.1 | 1.7 | 8.5% | -8.8% | -2.5% | 1.6%[38.3 µM]
O=C(Cn1cnc2c(nnn2-c2ccccc2)c1=O)NCc1ccco1 | 6.6% | 3.7 | -5.1 | ? | 13.4% | 0.0% | 8.1%
CCOCCCN(C(=O)Cn1nnc(-c2ccc(C)o2)n1)C(C(=O)NC1CCCC1)c1ccc(C)o1 (configuration not stated) | 6.3% | 0.3 | -1.8 | -1.3%[15.4 µM] | -27.4% | . | -0.6%
N#Cc1ccccc1NC(=O)C(=O)NCC1CCCN1S(=O)(=O)c1cccs1 (configuration not stated) | . | . | -2.0 | 18.3% | 6.9% | -6.3% | 0.1%
COc1cc2nc(/C=C/c3ccc(N(C)C)cc3)sc2cc1SC | ? | ? | -3.4 | -23.4%[15.4 µM] | 3.2% | 0.3% | 5.8%
O=C1c2cccc3cccc(c23)C(=O)N1CC1CCN(S(=O)(=O)c2ccccc2)CC1 | . | . | -0.5 | -0.6%[15.4 µM] | -7.2% | . | 0.2%
CCOC(=O)c1sc(-c2ccccc2)cc1NC(=O)CSc1nnnn1C | 0.7% | 2.5 | -4.9 | ? | -14.4% | ? | -0.4%
COC(=O)c1sc(NC(=S)NC(=O)c2ccccc2)nc1C | -4.5% | 4.4 | -4.2 | -30.8%[inhibitor] | -20.5% | 1.0% | 13.5%
CCC(C)NC(=O)c1ccc(-n2c(=S)[nH]c3ccccc3c2=O)cc1 (configuration not stated) | 2.3% | 5.2 | -0.3 | -11.3%[15.4 µM] | 6.5% | -1.0% | 0.8%
CSc1cccc(NC(=O)c2nnn(Cc3ccccc3)c2N)c1 | 23.9% | 0.0 | -0.9 | -22.1% | -4.3% | 124.2% | 7.3%
CC[C@H](C)[C@@H](NC(=O)O[C@@H]1C(=O)c2cc(Br)ccc2O[C@H]1c1cccc(OC)c1)C(=O)OC | -1.8%&8.5% | 0.3&2.7 | -5.0 | -0.2% | -15.0% | -1.1% | 5.1%
CCOCCCNCc1cc(Br)ccc1OCC | 21.2% | 1.0 | -1.3 | -42.7% | -0.3% | 0.9% | -4.0%
O=C(Nc1ccccc1)C1(c2ccccc2)CC1(Cl)Cl (configuration not stated) | -9.5% | 3.0 | -3.0 | 21.4% | -0.7% | 1.2% | -2.4%
COC(=O)[C@]1(C)N[C@H](c2ccc(SC3CCCCC3)c(OC)c2)[C@@H]2C(=O)N(C)C(=O)[C@@H]21 | . | . | 0.3 | 3.8% | 11.1% | -4.2% | -1.2%
O=C(CSc1nc2c([nH]c3ccccc32)c(=O)n1-c1ccccc1)N1CCOCC1 | 1.7% | 2.3 | 1.3 | -74.1%[inhibitor] | -2.3% | ? | -0.2%&1.1%
Cc1ccc(C)c(N2CCN(C(=O)Cn3ncn4cccc4c3=O)CC2)c1 | 11.5% | -4.0 | -1.8 | -4.4% | -0.9% | -1.6% | -0.1%
Cc1cccc(C)c1NC(=O)C(c1ccccc1)N1CCC(Cc2ccccc2)CC1 (configuration not stated) | . | . | -2.8 | . | . | 2.6% | ?
COc1ccccc1N(Cc1cc(=O)[nH]c2ccccc12)C(C)=O | 7.1% | 8.8 | 2.8 | -19.5% | 2.2% | -8.8% | 2.7%
Cc1ccccc1NC(=O)CSc1nc2ccccc2c(=O)n1C | -5.9% | 3.3 | 2.4 | 2.4%[15.4 µM] | -14.6% | -1.4% | 0.5%
CC1=C(C#N)C(NC(=O)c2ccco2)(C(F)(F)F)C(=O)N1 (configuration not stated) | -3.4% | 4.3 | -2.2 | 8.8% | 10.7% | -1.4% | ?
O=C(CN1CCC2(CC1)OCCO2)c1c[nH]c2ccccc12 | -0.1% | 0.5 | -4.3 | -2.2% | 7.1% | 0.7% | 1.5%
CC1=CC(C)C(C(=O)O)C(C(=O)Nc2cccnc2)C1 (configuration not stated) | 16.7% | 3.1 | -1.5 | -2.3%[15.4 µM] | 10.6% | . | 0.9%
COCCCNc1nc2c(-c3cccc(C)c3)nnn2c2ccc(Cl)cc12 | -7.6% | -4.8 | ? | 26.4% | -9.6% | 3.8% | 1.6%
(continued)
SMILES | Sfp PPTase inh | Menin-MLL FL inh | D2 agonist | gsp agonist | gsp antagonist | ClpP mod | PINK1 modulator
CCOC(=O)c1ccccc1NC(=O)CN(c1ccccc1OC)S(C)(=O)=O | 12.4% | -3.3 | -2.0 | -23.4% | 4.4% | -0.8% | .
Cc1ccc([N+](=O)[O-])cc1N(CC(=O)NCC1CCCO1)S(C)(=O)=O (configuration not stated) | -6.8% | -0.2 | 0.7 | ? | 5.3% | . | -1.4%
CCCCOC(=O)C1=C(N)N2C(=O)C(C)SC2=C(C(=O)OCC)C1c1ccc(O)c(OC)c1 (configuration not stated) | 12.8% | 3.9 | -0.7 | -12.6%[15.4 µM] | 5.8% | . | -1.7%
CC1(C)Cc2ccccc2C(NN=C2CCCC2)=N1 | 1.4% | -4.7 | -3.8 | -3.0%[15.4 µM] | 8.8% | 1.1% | -2.0%
O=C(Nc1sc2c(c1C(=O)NC1CC1)CCCCCC2)c1ccco1 | 39.8µM* | 5.2 | 1.3 | -10.7% | -2.8% | ? | 3.9%[38.3 µM]
NC(=NC(=O)c1ccccc1)C1=C(O)CCC1=O | 8.3% | 4.8 | 1.5 | -18.4% | 5.6% | -3.8% | -0.5%
CCOC(=O)c1ccc(NC(=O)c2c(Cl)cc(C)nc2C)cc1 | -13.1% | 2.2 | 0.1 | 4.4% | 0.3% | . | -0.4%
